Screens as filed in PubChem BioAssay.
eIF4H inh: inhibitors of RNA binding by human eIF4H | Q15056 | eIF4H fluorescence polarization binding assay | inhibition, % at 35 µM | 0.94% of 290,000 active;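 active means 50% or more with normal probe brightness, or confirmed in later tests; about a fifth of its hits are not listed in these tables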;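 further: calls also rest on retests at 20 µM and on dose response follow-up; 0% = protein and probe with vehicle and 100% = probe without protein; strong numbers were not always called active; many hits fall short of the cut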
PABP FP inh: PABP-poly(A) binding inhibition; P11940; PABP-poly(A) RNA binding, fluorescence polarization; inhibition, % at 35 µM; 1% of 290,000 active; AID 2014;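 active means 50% or more with normal probe brightness, or confirmed in later tests; about a fifth of its hits are not listed in these tables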;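 further: calls also rest on retests at 20 µM and on dose response follow-up; controls were probe without protein and protein plus probe with vehicle; some compounds called inactive have numbers as strong as hits; many hits fall short of the cut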
Rce1 inh: inhibitors of yeast Ras-converting enzyme. yeast membranes, quenched prenylated peptide cleavage fluorescence. calls only. AID 2563. Q03530. 0.27% of 290,000 active;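 active means fall in fluorescence gain of 50% or more versus controls, with final raw signal at or below 3038400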;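 further: plate controls were neutral control wells for no effect and wells lacking membranes for full effect; tested at 10 µM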
Target sequence (Q03530 whole entry, looked up): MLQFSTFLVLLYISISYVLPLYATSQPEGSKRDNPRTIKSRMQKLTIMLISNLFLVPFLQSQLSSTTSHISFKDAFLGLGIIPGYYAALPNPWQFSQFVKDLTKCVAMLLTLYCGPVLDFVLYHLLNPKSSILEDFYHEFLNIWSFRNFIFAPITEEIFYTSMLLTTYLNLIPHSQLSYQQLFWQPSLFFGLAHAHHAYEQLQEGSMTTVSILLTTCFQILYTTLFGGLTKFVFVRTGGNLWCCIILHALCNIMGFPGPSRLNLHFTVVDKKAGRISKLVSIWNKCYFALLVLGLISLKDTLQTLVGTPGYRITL
UUG fidelity: alters start codon recognition fidelity in yeast; S. cerevisiae UUG-firefly luciferase reporter, luminescence/redox ratio; activity score, % at 18.7 µM; 0.13% of 350,000 active; AID 602363;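 active means replicate mean at a twofold rise or more, about +100% in these data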;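 further: firefly luciferase made from a UUG start codon reports start codon fidelity; reporter light over untreated wells divided by growth signal over untreated wells; some hits fall short of that in this replicate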
MT1-MMP act inh: blocks activation of human MT1-MMP. HT1080 RFP-PRO-GFP cells, GFP/RFP ratio fluorescence, overnight; percent of plate control window, DMSO zero. GFP/RFP ratio change, % at 20 µM. 0.061% of 360,000 active. AID 651647;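 active means GFP/RFP ratio change of at least 30% with cell ATP level not reduced by more than half and red fluorescence within 50% of control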; further: strong numbers were not always called active
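Material – HT1080 RFP-PRO-GFP cells · Control set – DMSO wells and RFP-L50D-GFP cells · Incubation – overnight cell settling, then overnight compound exposure, 37 °C, 5% CO2 · Compound dosing – single-point 20 µM compound, 1% DMSO · Read-out – GFP/RFP fluorescence ratio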
HIV Env fusion: HIV envelope-mediated fusion inhibition; AID 651610; inhibition, % at 12.3 µM; HeLa-JRFL Env/CEM21 cell fusion, luciferase; 1.1% of 360,000 active;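 active means mean replicate inhibition score of at least 50 and every replicate individually at or above 50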;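 further: 0% = plate neutral controls and 100% = maraviroc near 300 nM; one replicate is shown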
CSC inhib: blocks cancer stem cells | cancer stem cell-like cells viability, luminescence | inhibition, % at 7.5 µM | 1.1% of 300,000 active;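 active means mean at 75% or more and at least half the replicates too; tested in HMLE shEcad cells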;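 further: 0% = median of negative and 100% = median of positive control wells; the first replicate is given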
eIF4H inh retest: recorded beside eIF4H inh, whose call it bears; inhibition, %; compound at 20 µM; confirmation average;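 mean of two retest wells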
PABP FP inh retest: second read-out of PABP FP inh, no call of its own (marks repeat the call); inhibition, %; compound at 20 µM; confirmation repeats;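 mean of two retest wells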
MT1-MMP act inh RFP: recorded beside MT1-MMP act inh, whose call it bears; RFP signal change, %; measured here: RFP expression control read;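 0 = vehicle wells; hits needed this value within 50% of zero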
* hit, by the source's call; i = inactive; . = not tested or not shown.

SMILES | eIF4H inh | PABP FP inh | Rce1 inh | UUG fidelity | MT1-MMP act inh | MT1-MMP act inh RFP | HIV Env fusion | CSC inhib | others
Cc1ccc2nc(SCC(=O)NCc3cccs3)c(C#N)cc2c1 | -15 | -2 | i | -20 | 1 | -1 | 27 | -6
Cc1c(C(=O)NC2CCCCC2)oc2ccc(F)cc12 | -11 | 1 | i | -11 | -5 | 0 | 2 | 4
Cc1ccc(C(=O)N2N=C(c3cccc(NS(C)(=O)=O)c3)CC2c2cccs2)cc1 (centres undefined) | -5 | 1 | i | -5 | 1 | 0 | -2 | -3
COc1ccc(NC(=O)CNC(=O)c2ccco2)cc1S(=O)(=O)Nc1cc(C)ccc1Br | . | . | . | -3 | 3 | -4 | -5 | -5
O=C(c1ccc(N2CCCCCC2)c([N+](=O)[O-])c1)N1CCc2ccccc21 | -7 | 3 | i | . | . | . | . | 23
CCC(C)(C)n1nnnc1C(c1ccncc1)N1CCN(c2cccc(OC)c2)CC1 (centres undefined) | 1 | 11 | i | -23 | -12 | 2 | . | -1
COc1ccccc1N(CC(=O)NCC1CCCO1)C(=O)CNS(=O)(=O)c1ccc(C)cc1 (centres undefined) | -15 | -7 | i | -7 | 3 | 3 | -5 | 9
CCOc1ccc(C2N(c3ccc(F)cc3)C(=O)C3CCCN32)cc1OC (centres undefined) | 0 | 12 | i | -13 | -2 | 3 | 13 | 2
O=C(NCCC(F)(F)F)C1Cc2c(-c3ccc(Cl)cc3)ccnc2O1 (centres undefined) | . | . | . | -17 | -1 | 0 | -15 | .
COc1ccc(C(C)(C)C)cc1NC(=O)COC(=O)c1ncc(Cl)c(Cl)c1Cl | -21 | -19 | i | -6 | 0 | 2 | . | -6
CCC(C)(C)n1nnnc1C(c1ccc(OC)c(OC)c1)N1CCN(C(=O)c2ccco2)CC1 (centres undefined) | -14 | 4 | i | -20 | -2 | -4 | 0 | -4
CC(CCc1ccccc1)NC(=O)c1ccc(NC(=O)c2ccc(Cl)cc2Cl)cc1 (centres undefined) | -2 | 1 | i | . | 8 | 4 | . | 2
CC(C)(C)c1csc(NC(=O)c2ccc3nccnc3c2)n1 | -8 | -6 | i | . | -11 | -6 | . | 16
Cc1ccc(OCCNC(=O)c2cccc(S(=O)(=O)NCc3ccccc3)c2)cc1 | . | . | . | 1 | -8 | -20 | 1 | .
CC(=O)NC(c1cccc(F)c1)c1nc(-c2cc3ccccc3o2)cs1 (centres undefined) | . | . | . | -6 | -1 | -1 | -125 | .
COc1ccccc1Oc1nc2c(c(=O)n(Cc3ccccc3F)c(=O)n2C)n1C | 79 | 26 | i | -8 | 2 | -8 | -18 | 13 | eIF4H inh retest=24;PABP FP inh retest=32
COc1cccc(/C(C)=N/NC(=O)c2ccc(N(C)C)cc2)c1 | 3 | -2 | i | -8 | 5 | 8 | . | 8
O=C(NNC(=O)c1cccc2ccccc12)c1cccc(Br)c1 | . | . | . | 14 | 1 | -4 | 8 | .
O=[N+]([O-])c1ccccc1-c1nc(-c2ccc(Br)o2)no1 | 6 | -21 | i | . | -4 | -3 | -120 | 13
CCN1C(=O)[C@H]2[C@@H](c3ccc(-c4cccc(Cl)c4)cc3)N3CCCC[C@@]3(C(=O)OC)[C@H]2C1=O | . | . | i | -9 | 0 | -4 | -12 | 14
CCOC(=O)c1cc(C#N)c(N2CCN(c3ccccn3)CC2)nc1-c1ccccc1 | -2 | -18 | i | -2 | 14 | 6 | 15 | 2
O=C(c1ccccc1)N(Cc1ccc2c(c1)OCO2)Cc1nc2ccccc2c(=O)[nH]1 | 0 | 1 | i | 18 | -1 | -3 | -53 | -4
Cc1cc2c(cc(C(=O)N3CCC(C(=O)NC4CCCC4)CC3)n2Cc2c(F)cccc2Cl)o1 | -11 | 33 | i | -7 | -8 | -22 | -6 | -14
CCCCCCCCNS(=O)(=O)CCNC1CC1 | . | . | . | -9 | -1 | 1 | -5 | .
O=C(COc1ncnc2ccccc12)Nc1ccc(S(=O)(=O)N2CCOCC2)cc1 | 2 | 5 | i | 2 | 5 | 3 | -1 | -6
CCOC(=O)C1CCN(C(=O)CN(C)S(=O)(=O)c2cc(C)ccc2OC)CC1 | -9 | -8 | i | 11 | -6 | -1 | -9 | -16
Cc1ccc(OCCC(=O)OCC(=O)NC2CCCCC2)cc1 | . | . | . | -19 | -3 | 4 | 32 | .
Cn1nc(C(F)(F)F)cc1-c1ccc(S(N)(=O)=O)s1 | 5 | 1 | i | . | -1 | -2 | -20 | -7
CCOC(=O)c1c(/N=C/c2cc(OC)cc([N+](=O)[O-])c2O)sc(C)c1C | 15 | 8 | i | . | 1 | 2 | 18 | 3
CC(C)(C)NC(=O)Cn1nnc(-c2ccccc2NC(=O)c2cnccn2)n1 | -6 | -10 | i | -25 | 6 | -1 | -57 | .

The list goes on, starting with the last 4 of the part before.
SMILES | eIF4H inh | PABP FP inh | Rce1 inh | UUG fidelity | MT1-MMP act inh | MT1-MMP act inh RFP | HIV Env fusion | CSC inhib | others
Cc1ccc(OCCC(=O)OCC(=O)NC2CCCCC2)cc1 | . | . | . | -19 | -3 | 4 | 32 | .
Cn1nc(C(F)(F)F)cc1-c1ccc(S(N)(=O)=O)s1 | 5 | 1 | i | . | -1 | -2 | -20 | -7
CCOC(=O)c1c(/N=C/c2cc(OC)cc([N+](=O)[O-])c2O)sc(C)c1C | 15 | 8 | i | . | 1 | 2 | 18 | 3
CC(C)(C)NC(=O)Cn1nnc(-c2ccccc2NC(=O)c2cnccn2)n1 | -6 | -10 | i | -25 | 6 | -1 | -57 | .
C[C@@H]1CN[C@H](CCO)/C1=C\c1ccccc1 | . | . | . | -12 | 3 | 6 | -108 | .
COc1ccc(C)cc1Nc1nc(-c2c[nH]c3ccccc23)cs1 | 7 | 1 | i | . | -2 | 2 | -18 | 4
Cc1occc1C(=O)NC1CCCN(Cc2ccc(Cl)cc2)C1 (centres undefined) | -8 | 19 | i | -8 | -1 | 2 | 7 | -6
CCCCSc1ccc(NC(=O)c2cccnc2)cc1 | 0 | -3 | i | -13 | 4 | -7 | -20 | 0
OC[C@@H](O)[C@H](O)C(/C=N/Nc1ccccc1)=N\Nc1ccccc1 | -7 | -9 | i | -10 | 5 | 5 | -6 | 22
COc1ccccc1NC(=O)CN1CCCCC1 | -5 | -2 | i | -11 | 6 | 10 | . | -11
CC(C)Cn1c(N)c(C(=O)COC(=O)c2c(O)c(Cl)cc(Cl)c2Cl)c(=O)n(C)c1=O | . | . | . | -10 | 5 | -1 | -1 | .
O=S(=O)(c1cccc(-c2nc3n(n2)Cc2ccccc2-3)c1)N1CCCCC1 | 1 | 11 | i | -9 | 2 | -6 | -59 | -1
COc1cc(C(=O)Nc2nnc(CC(C)(C)C)s2)c([N+](=O)[O-])cc1OC | -3 | -10 | i | -14 | 1 | -3 | -10 | -2
Cc1ccc(CN2C(=O)CCC2C(=O)NCCc2ccccc2)cc1 (centres undefined) | -1 | 18 | i | -3 | 0 | -1 | 1 | .
O=C(CSc1nnc(C2COc3ccccc3O2)o1)Nc1ccc(F)cc1Cl (centres undefined) | -1 | 18 | i | . | 1 | 3 | -15 | -6
CCN(c1ccc(OC)cc1)S(=O)(=O)c1nnc(NC(=O)c2ccc(C)cc2)s1 | . | . | i | 1 | 6 | -4 | . | 3
Nc1ncnc2c1nc(N1CCCCC1)n2[C@@H]1O[C@H](CO)[C@@H](O)[C@H]1O | . | . | . | 13 | 3 | -2 | -26 | 10
COc1ccc(C(=O)O/N=C(\N)Cc2ccc(Cl)cc2Cl)cc1OC | -15 | -4 | i | . | -6 | -11 | -7 | -11
COc1cc(NC(=O)CN(c2cc(C)cc(C)c2)S(=O)(=O)c2c(C)[nH]c(=O)[nH]c2=O)cc(OC)c1 | -8 | 2 | i | 14 | -1 | 4 | 1 | -3
O=C(c1ccco1)[C@@H]1[C@@H]2C(=O)N(c3ccc(F)cc3)C(=O)[C@@H]2C2c3ccccc3C=CN21 (some centres undefined) | 70 | 44* | i | . | . | . | -8 | . | eIF4H inh retest=45;PABP FP inh retest=52*
CC(C)CN(C(=O)c1ccc([N+](=O)[O-])s1)c1c(N)n(Cc2ccccc2)c(=O)[nH]c1=O | . | . | . | -8 | -14 | -2 | 0 | -1
Cc1cc(C(=O)NNC(=O)c2ccccc2[N+](=O)[O-])c(C)o1 | . | . | . | -21 | -2 | 2 | -59 | -17
CCOc1ccc(CN2CCCC(CO)(Cc3ccc(F)cc3)C2)cc1 (centres undefined) | -1 | -12 | i | -27 | 9 | -1 | 14 | 24
CC(=O)Oc1ccc(-c2cc3c(OC(C)=O)cc(OC(C)=O)cc3oc2=O)cc1 | . | . | i | -32 | -2 | 1 | . | 10
Cc1nn(-c2ccccc2)c(C)c1/C=N/NC(=O)CSc1nnc(SCc2ccc(Cl)cc2)s1 | -3 | -10 | i | . | -4 | -12 | 2 | 14
CN(CC#CC(O)(c1ccccc1)c1ccccc1)C(C)(C)C | 3 | -1 | i | 5 | -1 | 1 | 6 | 1
O=C(CN(c1ccccc1Cl)S(=O)(=O)c1ccccc1)NCc1ccccc1 | -3 | -5 | i | 11 | -1 | 0 | 8 | .
CCn1nc(C)cc1C(=O)N(C)C1CCCN(Cc2ccccc2F)C1 (centres undefined) | -7 | 3 | i | -8 | -2 | 0 | -2 | -1
CCN(CC)CCNC(=O)Cn1cnc2sc(C)c(S(=O)(=O)N3CCC(C)CC3)c2c1=O | 14 | -2 | i | -1 | 1 | 0 | -12 | 5
CC(=O)Nc1cccc(S(=O)(=O)N2CCCCCC2)c1 | -12 | -9 | i | 16 | 2 | 2 | -87 | -10
CC(C)(OC(=O)NC(=O)C(F)(F)F)C(C)(C)OC(=O)NC(=O)C(F)(F)F | -3 | 0 | i | . | 7 | 6 | 7 | .
CCCn1c(SCC(=O)OCC)nc(C(F)(F)F)cc1=O | 0 | 4 | i | . | -1 | 2 | 2 | -10
CCOC(=O)CCNC(=O)N1CCCC(N2CCN(c3ccc(OC)cc3)CC2)C1 (centres undefined) | 4 | 0 | i | -5 | 0 | 0 | -4 | .
Cc1ccc(-c2c(C(=O)N/N=C/c3cccnc3)nnn2-c2nonc2N)cc1 | -12 | 6 | i | -9 | 3 | 1 | 3 | -12
COc1ccc(N2CC(C(=O)Nc3nnc(SCC(=O)Nc4ccc(NC(C)=O)cc4)s3)CC2=O)cc1 (centres undefined) | . | . | . | -15 | 2 | 4 | 8 | .
O=C(NCc1ccccn1)c1ccc(Cn2cc(C(F)(F)F)ccc2=O)cc1 | 7 | -9 | i | -18 | 1 | 2 | 21 | -13
COc1ccc(-n2nc3ccc(N)cc3n2)cc1Cl | 55* | 15* | . | -6 | -9 | -1 | i | 13 | eIF4H inh retest=90*;PABP FP inh retest=50*
CCCOc1ccc(N2C(=O)CC(SC(=NCC)NCC)C2=O)cc1 (centres undefined) | -6 | -2 | i | . | 5 | 10 | 7 | -6
COc1ccc(CCNC(=O)CCNS(=O)(=O)c2ccc3c(c2)CCN3C(C)=O)cc1OC | -10 | 2 | . | -15 | 2 | 5 | . | .
CC(C)(C)S(=O)(=O)c1cnc(N2CCOCC2)nc1N | -1 | 9 | i | . | 4 | 2 | 10 | -10
COc1ccc(NC(=O)c2ccco2)cc1NC(=O)c1ccccc1F | -8 | -2 | i | -22 | -2 | -3 | 17 | 4
COC(=O)[C@@]12CCCCN1[C@H](c1ccc(-c3ccc4c(c3)OCO4)cc1)[C@H]1C(=O)N(C)C(=O)[C@H]12 | . | . | . | -25 | -4 | -19 | 2 | .
CCOc1ccc2c(C)c(Cl)c(=O)oc2c1 | 7 | 13 | i | -18 | 1 | 3 | . | 0
